Assay outcomes from PubChem BioAssay.
NPYLR7 ag: agonists of mosquito NPYLR7 receptor, primary screen, cell-based, Aedes aegypti, calcium fluorescence, mosquito biting behavior | Aedes aegypti neuropeptide Y-like receptor 7 (NPYLR7) | HEK293T NPYLR7/Galpha15, GCaMP6s calcium fluorescence | activation, % at 10 µM | hit rate 0.15% among 270,000 | AID 1259423, 2018; in the data active means activation above about 40%;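 further: 0% = vehicle and 100% = reference agonist at the receptor; some compounds past the cut are filed as inactive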
NPYLR7 ag max-min: also measured in NPYLR7 ag; calls as there; activation, %; measured here: Max-Min RFU normalised activation; some inactives read as strong as hits;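 span of the calcium signal over five minutes; 0% = vehicle and 100% = native peptide agonist; compound fluorescence can raise it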
* hit, by the source's call. Not all compounds are listed; count on the stated rates, not on these rows.

SMILES | NPYLR7 ag | NPYLR7 ag max-min
COC(=O)C1(NC(=O)Cn2cccc(C)c2=O)CCCCC1 | 2 | 1
CCOC(=O)[C@@H]1CCCC[C@@H]1NC(=O)c1ccc(-n2nc(-c3cccc(C)c3)cc2N)cc1 | -8 | -15
COC(=O)C1=C(C)N(C)C(C)=C(C(=O)OC)C1c1ccccc1Br | 5 | 1
CCOCCOC(=O)C1=C(C)NC2=C(C(=O)CCC2)C1c1ccc(OC(C)=O)cc1 (stereo not given) | -4 | -9
Cc1ccccc1NC(=O)N1CCC(Cc2ccc(C(F)(F)F)cc2)CC1 | 1 | 7
O=S(=O)(Nc1cccc(S(=O)(=O)N2CCCC2)c1)c1ccccc1 | 5 | 9
CSc1nc(SCC(=O)O)c2sc3c(c2n1)COC(C)(C)C3 | -12 | -17
C=C(C)C(O)(C(=C)C)c1ccc(CN(CCN2CCOCC2)Cc2cccc(C)c2)o1 | -2 | 4
COc1ccccc1/C=C/C=C1\N=C(c2ccccc2Br)OC1=O | -1 | -4
C=CCN=c1scc(-c2ccc(OC)cc2)n1N=Cc1cc(OC)c(O)c(OC)c1 | 10 | 4
O=C(c1csc(CSc2nnc(-c3ccco3)n2-c2ccc(Cl)cc2)n1)N1CCN(c2ccccc2Cl)CC1 | 8 | 16
O=C(NCCO)C(Cc1ccccc1)n1cccc1 (stereo not given) | -5 | -1
COC(=O)/C(=C\N1CCOCC1)c1ccccc1[N+](=O)[O-] | -6 | -1
COc1ccc(-c2nnc(SCC(=O)NC(C)(C)C)o2)cc1 | -6 | -2
OC1CCCN(CCCn2cnc(-c3ccccc3)c2-c2cc(F)cc(F)c2)C1 (stereo not given) | 1 | -8
C=CCOC1C[C@](OCc2ccc(C#N)cc2)(C(=O)NCC(C)C)C[C@H]2OC(C)(C)O[C@@H]12 (stereo not given in full) | 9 | 21
CC1(C2CCNCC2)NC(=O)N(CCCc2ccccc2)C1=O (stereo not given) | 14 | 9
O=S(=O)(Nc1ccc2c(c1)OCCO2)c1cnc[nH]1 | 23 | 18
COc1ccc(S(=O)(=O)N2CCOCC2)cc1N1CCN(C(=O)c2ccc(Cl)c(Cl)c2)CC1 | 4 | 2
CN1CCc2c(cc(O)c(O)c2Cl)C(c2cccc(Cl)c2)C1 (stereo not given) | -2 | -4
CNC(=O)COc1coc(CN2CCN(c3ccccc3OC)CC2)cc1=O | 3 | 3
CC1(c2cccc(-n3cnnn3)c2)NC(=O)NC1=O (stereo not given) | -1 | -2
FC(F)(F)Oc1ccc(-n2nnnc2SCc2nc3ccccc3o2)cc1 | 5 | 3
COc1cccc(/C=C/C(=O)N2CCCN(S(N)(=O)=O)CC2)c1 | 11 | 4
CCOC(=O)c1c(NC(=O)/C=C/c2ccc([N+](=O)[O-])cc2)sc2c1CCN(C(=O)OCC)C2 | 1 | -1
CCCn1c(=O)c(C(=O)N2CCC(C(=O)OCC)CC2)nn(-c2cccc(C)c2)c1=O | 6 | 11
Cc1ccc(C(=O)N2CCC(C3=CCN(CCO)CC3)CC2)cc1F | 16 | 13
COc1cccc(N(C)C(=O)c2ccc(Cl)c(S(=O)(=O)N(C)C)c2)n1 | -2 | 8
COc1cccc(C(=O)N(Cc2ccco2)Cc2c(-c3ccc(F)cc3)noc2N2CCOCC2)c1 | 2 | 7
O=C(Cn1cc(S(=O)(=O)N2CCCC2)ccc1=O)NNC(=O)c1cccs1 | 3 | 16
Cc1ccc(-c2nc(CN3CCC4(CCCO4)CCC3=O)c(C)o2)cc1 (stereo not given) | 9 | 3
CC(=O)N1CCN(c2ncccc2CNCc2ccccc2C(F)(F)F)CC1 | -5 | -6
Cn1c(Cn2c(=O)cnc3cc(F)c(F)cc32)cc(=O)n(C)c1=O | 2 | 2
Cc1ccccc1Cn1c2c(c(C)c1C(=O)NCc1ccc3c(c1)OCO3)CCCC2 | -2 | 2
COc1ccccc1C(C)N(C)Cc1nc(CCC(C)C)no1 (stereo not given) | 1 | 0
CCOC(=O)c1c(NC(=O)c2cc(C)oc2C)c(-c2ccc3c(c2)OCO3)cn1C | 5 | -10
CC(C)(C)c1ccc(COc2coc(CN3CCCN(S(=O)(=O)c4cccc(-c5ccccc5)c4)CC3)cc2=O)cc1 | -6 | -4
CCc1cc(OC(=O)C2CC2)n(-c2ccc(Cl)c(Cl)c2)n1 | 4 | 5
CCc1ccccc1OCCN(C)C(=O)c1ccc(C(C)=O)cc1 | 17 | 5
O=C1C=C(Nc2ccccc2)C(=O)N1CCO | 3 | 6
CC(=O)NC(CC(C)C)C(=O)N1CCN(Cc2ccc(-c3noc(-c4ccccc4)n3)cc2)CC1 (stereo not given) | 26 | 17
Cc1cc(C(=O)NNC(=O)CCNC(=O)c2ccco2)c(C)o1 | 6 | 6
CCC(C)c1csc(NC(=O)N(C)Cc2ncnn2C)n1 (stereo not given) | -1 | 2
CCOc1cccc(NC(=O)C2CC2C)n1 (stereo not given) | -1 | 12
CN(Cc1ccc(Br)s1)Cc1cc2c(cc1O)OCO2 | 2 | 10
C=CCNC(=O)c1c(-n2c(C)ccc2C)sc(C)c1C | 4 | 3
CCO[C@H]1COC[C@@H]1NC(=O)C(=O)c1cccnc1 | -4 | -7
CCOC(=O)N1CCN(C(c2ccc(F)cc2)c2c(O)cc(C)n(Cc3cccnc3)c2=O)CC1 (stereo not given) | 5 | 0
C=CCN(CC=C)C(=O)c1ccccc1I | 9 | 6
Cc1nc(C(C)C)sc1C(=O)NC(C)(C)c1ccc(F)c(F)c1 | -20 | -23
Cn1c(N)c(C(=O)CSc2cccc[n+]2[O-])c(=O)n(C)c1=O | 3 | -2
CC(C)(/C(=N\O)c1ccccc1)[N+]([O-])=NO | 4 | 32
C=C1Cn2c(nc3c2c(=O)n(C)c(=O)n3C)S1 | 8 | 4
C=CCOC(C)C(=O)N1CCS(=O)(=O)CC1c1ccccc1 (stereo not given) | 1 | -5
Cc1ccc2nc(C)c(C(=O)N(C)CC(=O)NC(C)(C)C)cc2c1 | 5 | 0
COCC1=C(C(=O)OC)C(c2cccs2)n2ncnc2N1 (stereo not given) | 8 | 2
CCN1CCN(C(c2ccc(OC)c(OC)c2)C2Sc3nc(C)nn3C2=O)CC1 (stereo not given) | 23 | 17
CCCn1nc(C(=O)NC(C)c2nnc3n2CCC3)ccc1=O (stereo not given) | -1 | -1
CCOc1ncccc1C(=O)Nc1ccnn1C(C)C | 9 | 5
NC1(C(=O)NCC2CCCN(Cc3cccc4nonc34)C2)CCC1 (stereo not given) | 1 | 0

Continuation:
SMILES | NPYLR7 ag | NPYLR7 ag max-min
COC(=O)[C@@H](NC1CCN(c2ccc(NC(=O)c3cnccn3)cc2)CC1)c1ccccc1 | 14 | 2
COc1ccc(OC)c(C2C3=C(CCCC3=O)OC(=N)C2C#N)c1 (stereo not given) | 2 | -4
CCCc1c(C(=O)N2CCCC(C(=O)OCC)C2)cnn1-c1ccccc1Cl (stereo not given) | 8 | 18
Cc1cc(C)c(C)c(OCc2nc(CN(C(=O)c3ccco3)C3CC3)cs2)c1 | 8 | 9
CC(=O)c1cc(CN(C)Cc2nncn2C(C)C)cs1 | -9 | -12
Cc1[nH]n(-c2ccccc2)c(=O)c1C1=C(N2CCCCC2)C(=O)N(C2CCCCC2)C1=O | -10 | -8
COc1cc(C2CC(C(F)(F)F)n3ncc(C(N)=O)c3N2)cc(OC)c1OC (stereo not given) | -2 | -7
Cc1ccc(C(=O)Nc2c3c(nn2CC(=O)NCc2ccc(F)cc2)CSC3)cc1C | 0 | -1
Cc1ccc(C)c(S(=O)(=O)Nc2ccc(Cl)cc2F)c1 | 0 | -2
CN(NC(=O)c1ccc(-n2nc(-c3ccc(Cl)c(Cl)c3)cc2N)cc1)c1ccccc1 | 4 | -3
Cc1noc(C)c1C(=O)N1CCC1(C)C(=O)NS(=O)(=O)c1ccc(F)cc1F (stereo not given) | 4 | 3
COc1ccc(CC(=O)NC2CCCCC2)cc1F | -8 | -10
CCOC(=O)c1c(C)[nH]c(C(=O)COC(=O)c2cccs2)c1C | 4 | -1
Cc1nc(C)c(Cc2ccc(F)cc2)c(N2CCN(S(C)(=O)=O)CC2)n1 | 31 | 29
Cc1[nH]c(=O)[nH]c(=O)c1CCc1nnc(SCc2ccccc2)o1 | -4 | -12
COc1cc(Cl)c(C)cc1NC(=O)Cn1c(C)nc2ccccc21 | 2 | 0
Cc1ccc(S(=O)(=O)NC(=O)c2cccc(F)c2)cc1C | 8 | 5
CN(Cc1cc(-c2ccccn2)no1)C1CCCc2ccccc21 (stereo not given) | 1 | -5
FC(F)(F)c1cc(Oc2ccccc2Cl)nc(SCc2cccc(Cl)c2)n1 | 2 | 10
CN(C)P1(N(C)C)=NC(c2ccccc2)=NC(NN(c2ccccc2)c2ccccc2)=N1 | -3 | -11
O=C(N/N=C\c1coc2ccccc2c1=O)c1cccnc1 | -3 | -6
Cc1ccc(CNC(=O)COc2coc(CN3CCc4ccccc4C3)cc2=O)cc1 | 1 | 0
COCCN1C(=O)C(C)Oc2ccc(C#N)cc21 (stereo not given) | 6 | 3
Cc1cc(C)n(CCC(=O)NC(Cn2cccn2)c2ccccc2)c(=O)n1 (stereo not given) | 16 | 0
CCC(C(=O)Nn1cnc2c(cnn2-c2ccc(C)cc2)c1=O)c1ccccc1 (stereo not given) | 3 | 2
CCCOc1ccc(C(=O)N2CCC(n3cnc4cc(C(F)(F)F)ccc43)CC2)cc1 | -4 | -6
COc1cc(Nc2nc3ccccc3n3nnnc23)cc(OC)c1 | -2 | -2
NC(=O)CN(C(=O)c1ccc(N2CCOCC2)cc1)C1CCCC1 | 15 | 11
Cc1c(Br)cccc1NC(=O)C1(C)CCN1Cc1ccc2c(c1)OCCO2 (stereo not given) | 10 | 2
Cc1cc(C)cc(-c2nc3cc(C)ccn3c2NC(=O)C(C)C)c1 | -8 | -5
O=C(Cc1nn(CCO)c(=O)c2ccccc12)OCc1cccc(F)c1F | 5 | 2
Cc1nc(CCn2ccnc2-c2ccnc3ccccc23)sc1C | -1 | -7
Cc1ccc(NC(=O)CN(C)S(=O)(=O)c2cccc(C)c2)cc1 | 3 | 0
COc1ccc(C)cc1N1CCN(C(=O)c2cccc(F)c2)C(C)C1=O (stereo not given) | -10 | -7
CC=CCn1c(=O)c2c(nc3n(-c4ccc(N(C)C)cc4)c(C)cn23)n(C)c1=O | 4 | -3
O=C(NCc1nncn1C1CCCCC1)c1n[nH]c2c1CCC2 | 6 | 6
CCCSc1ncc(CN2CCn3cncc3C2)cn1 | 5 | 6
CC(C)CN(CC(C)C)C(=O)c1ccc(-n2nc(-c3ccc(Cl)c(Cl)c3)cc2N)cc1 | -1 | -6
CC1CCN(C(=O)Cn2c(-c3nnc(C(C)C)o3)cc3ccccc32)CC1 | -7 | -5
O=C(CCCc1nnc2c(=O)n(-c3ccc(Cl)cc3)ccn12)N1CCc2ccccc2C1 | 2 | -6
CC1=NN(C(=O)CSc2ccccn2)C(C)(O)C1 (stereo not given) | 1 | 0
CCOc1ccc(-c2cc(C(=O)N3CCN(c4ccc(Cl)cc4)CC3)c3ccccc3n2)cc1 | -8 | -14
COc1ccc(CN2CCCn3cccc3C2c2ccc(C(F)(F)F)cc2)c(OC)c1 (stereo not given) | 2 | 13
CCCCC(=O)NC(CCSC)c1nc2ccccc2[nH]1 (stereo not given) | 11 | 5
CCc1ccccc1NC(=O)NCCn1nc(-c2ccccc2)ccc1=O | 6 | 5
CCCCCC1CC(CSc2ncn[nH]2)OC1=O (stereo not given) | 2 | 2

Some of the entries so far, as tab-separated lines.
mol	NPYLR7 ag	NPYLR7 ag max-min
CCC(C(=O)Nn1cnc2c(cnn2-c2ccc(C)cc2)c1=O)c1ccccc1 (stereo not given)	3	2
CCCOc1ccc(C(=O)N2CCC(n3cnc4cc(C(F)(F)F)ccc43)CC2)cc1	-4	-6
COc1cc(Nc2nc3ccccc3n3nnnc23)cc(OC)c1	-2	-2
NC(=O)CN(C(=O)c1ccc(N2CCOCC2)cc1)C1CCCC1	15	11
Cc1c(Br)cccc1NC(=O)C1(C)CCN1Cc1ccc2c(c1)OCCO2 (stereo not given)	10	2
Cc1cc(C)cc(-c2nc3cc(C)ccn3c2NC(=O)C(C)C)c1	-8	-5
O=C(Cc1nn(CCO)c(=O)c2ccccc12)OCc1cccc(F)c1F	5	2
Cc1nc(CCn2ccnc2-c2ccnc3ccccc23)sc1C	-1	-7
Cc1ccc(NC(=O)CN(C)S(=O)(=O)c2cccc(C)c2)cc1	3	0
COc1ccc(C)cc1N1CCN(C(=O)c2cccc(F)c2)C(C)C1=O (stereo not given)	-10	-7
CC=CCn1c(=O)c2c(nc3n(-c4ccc(N(C)C)cc4)c(C)cn23)n(C)c1=O	4	-3
O=C(NCc1nncn1C1CCCCC1)c1n[nH]c2c1CCC2	6	6
CCCSc1ncc(CN2CCn3cncc3C2)cn1	5	6
CC(C)CN(CC(C)C)C(=O)c1ccc(-n2nc(-c3ccc(Cl)c(Cl)c3)cc2N)cc1	-1	-6
CC1CCN(C(=O)Cn2c(-c3nnc(C(C)C)o3)cc3ccccc32)CC1	-7	-5
O=C(CCCc1nnc2c(=O)n(-c3ccc(Cl)cc3)ccn12)N1CCc2ccccc2C1	2	-6
CC1=NN(C(=O)CSc2ccccn2)C(C)(O)C1 (stereo not given)	1	0
CCOc1ccc(-c2cc(C(=O)N3CCN(c4ccc(Cl)cc4)CC3)c3ccccc3n2)cc1	-8	-14
COc1ccc(CN2CCCn3cccc3C2c2ccc(C(F)(F)F)cc2)c(OC)c1 (stereo not given)	2	13
CCCCC(=O)NC(CCSC)c1nc2ccccc2[nH]1 (stereo not given)	11	5
CCc1ccccc1NC(=O)NCCn1nc(-c2ccccc2)ccc1=O	6	5
CCCCCC1CC(CSc2ncn[nH]2)OC1=O (stereo not given)	2	2
